A488 fluor – compound autofluorescence in A488 spectral region; AID 591; max dye equivalency, M; 59,000 compounds, 0.1% hits; compound autofluorescence, A488 spectral region, dye equivalency; hits give high values; active = above 10 nM dye equivalent; inconclusive = 1 to 10 nM; inactive = 1 nM or less; about half of its hits are not listed in these tables;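 further: highest value over a series up to 38 µM; compound alone in buffer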
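Spectroscopic profiling in the A488 region: compounds in pH 8.0 Tris (100 mM), 15 min RT, CCD imaging with 480 nm excitation and 540 nm emission; responses normalized against A488 dye standards.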
TSHR ag – TSH receptor (human) agonism. 73,000 compounds, 0.48% hits. P16473. HEK293-CNG-TSHR cells (CNG channel as cAMP sensor), membrane potential dye, cAMP. AID 926. Potency, µM (top dose mostly 57.1 µM), for the others: at the top dose activation, most hits filed as activators; active = well fitted activation curve of enough size with the parental cells flat; inconclusive = any curve in the parental cells; inactive = parental cells flat and receptor cells flat or falling; further: potency means the concentration at half of the fitted maximal effect; % of control where 0% means no effect; weak receptor curves with flat parental cells got no call and are not listed
Target sequence (P16473 whole entry, looked up): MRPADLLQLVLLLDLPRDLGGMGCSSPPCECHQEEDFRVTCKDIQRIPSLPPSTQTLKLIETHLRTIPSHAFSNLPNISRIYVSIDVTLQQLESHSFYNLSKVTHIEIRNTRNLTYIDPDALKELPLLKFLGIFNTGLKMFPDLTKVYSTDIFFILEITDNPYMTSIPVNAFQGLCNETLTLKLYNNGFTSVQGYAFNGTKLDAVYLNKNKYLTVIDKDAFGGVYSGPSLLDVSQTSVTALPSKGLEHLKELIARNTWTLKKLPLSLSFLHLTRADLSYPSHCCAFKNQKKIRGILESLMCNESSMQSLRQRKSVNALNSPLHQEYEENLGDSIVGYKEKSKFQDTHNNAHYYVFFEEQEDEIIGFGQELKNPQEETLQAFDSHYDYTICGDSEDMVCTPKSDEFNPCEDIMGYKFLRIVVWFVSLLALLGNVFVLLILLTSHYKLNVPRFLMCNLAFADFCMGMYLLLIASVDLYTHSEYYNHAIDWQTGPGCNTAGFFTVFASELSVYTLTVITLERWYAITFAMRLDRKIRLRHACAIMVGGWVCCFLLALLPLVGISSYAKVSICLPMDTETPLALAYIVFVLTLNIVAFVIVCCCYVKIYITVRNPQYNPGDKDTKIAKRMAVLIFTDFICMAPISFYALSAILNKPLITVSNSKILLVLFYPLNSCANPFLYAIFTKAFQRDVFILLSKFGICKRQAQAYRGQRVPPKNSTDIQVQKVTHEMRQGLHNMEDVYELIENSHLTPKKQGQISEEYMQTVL
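HEK 293 cells stably expressing TSHR and a cAMP-gated CNG channel; parental CNG-only cells as counterscreen. Cells preloaded 60 min with membrane potential dye plus 100 uM RO 20-1724, then compound 30 min; fluorescence read at 590 nm.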
AID923 – qHTS Assay for Allosteric/Competitive Inhibitors of Caspase-1: Spectroscopic Profiling in AFC Spectral Region. compound fluorescence, AFC spectral region (405/520 nm); almost no hit is shown here. Potency, µM (highest dose often 57.5 µM), without a hit: at the top dose fluorescence increase, usual class: activators. 75,000 compounds, 1.1% hits; active means well fitted activation curve with a large enough effect; inconclusive means small, poorly fitted or top-dose-only effect;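 further: potency means the concentration at half of the fitted maximal effect; 0% is about no effect; scaled to a free AFC standard on each plate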
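Compound autofluorescence profiled at 405 nm ex/520 nm em during kinetic caspase 1 run (50 nM enzyme, 5 uM Ac-WEHD-AFC, HEPES pH 7.5, 10 mM DTT). Titration up to 57 uM; baseline from regression intercept, normalized to AFC standard curve.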
Resorufin autofl – compounds fluorescent in resorufin spectral region. Compound fluorescence, resorufin region 547/598 nm, buffer; hits give high values. max dye-equivalent concentration, M. 59,000 compounds, 0.04% hits; active = above 10 nM dye equivalent; inconclusive = 1 to 10 nM; inactive = 1 nM or less; a few of its hits are not listed in these tables; further: highest value over a series up to 38 µM
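Read-out: intrinsic compound fluorescence at ex 547/em 598 nm after 15 min at RT in pH 8.0 Tris (100 mM). Values expressed as resorufin-equivalent concentration from per-plate standard series.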
A647 autofl – compound fluoresces in the A647 spectral region | Compound fluorescence, A647 channel (570/671 nm), Tris buffer | max dye-equivalent concentration, M | 59,000 tested, under 10 active | AID 592; active means above 1 µM dye equivalent; inconclusive means 0.1 to 1 µM; inactive means 0.1 µM or less;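 further: values scaled relative to a standard on each plate; highest value over a series up to 38 µM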
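Tris 100 mM pH 8.0; cpd + A647 stds pin-transferred; 15 min RT; CCD imager, ex 570/em 671. Output = A647-equivalent conc. per cpd conc.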
An asterisk follows results filed as active; i = inactive; ? = inconclusive; / = not tested or not shown; [ ] = another dose, or the depositor's remark. The list is partial; count on the stated rates, not on these rows.

SMILES	A488 fluor	TSHR ag	AID923	Resorufin autofl	A647 autofl
COc1ccc(Cl)cc1Nc1nc(NCCO)nc(N2CCCC2)n1	i	1%	-2.5%	i	2.8e-08
[O-]/[N+](=C\c1ccccc1)[C@@H]1CCCC[C@@H]1/[N+]([O-])=C/c1ccccc1	i	5%	-0.5%	i	2.7e-08
CCOCC(=O)NCc1ccc2c(c1)OCO2	i	-9%	-1.2%	i	2.2e-08
COc1ccc2nc(NC(=O)CCn3cccc3)sc2c1	/	-14%	0.8%	/	/
COC(=O)c1ccccc1S(=O)(=O)N(Cc1cc2ccc(OC)cc2[nH]c1=O)CC1CCCO1 (stereo not drawn)	i	3%	-1.1%	i	3.3e-08
CCN(CC)C(=O)c1cc2cc(Br)ccc2oc1=O	i	-2%	-0.1%	i	1e-09
CN1CC[C@@]2(CCCN(S(=O)(=O)c3ccccc3)C2)C1	i	?	-1.8%	i	1.9e-08
CN(CC(=O)N1CCN(c2ccccn2)CC1)S(=O)(=O)c1ccc2ccccc2c1	i	/	-3.0%	i	8.4e-09
CC(=O)c1cc(C#N)c(SCC(=O)OC(C)C)nc1C	i	-11%	2.4%	i	1.5e-08
Cc1cc(C)c(OCC(=O)Nc2nnn(C)n2)c(Br)c1	i	3%	-0.9%	i	1e-09
Cn1c(=O)c2c(ncn2CC(=O)N2CCOCC2)n(C)c1=O	/	4%	2.6%	/	/
Cc1ccc2c(c1)[nH]c1c(=O)n(CCN3CCCCC3)cnc12	i	?	1.9%	i	1.1e-08
COc1ccc(C(=O)NCCn2cc(SCC(=O)Nc3nnc(C)s3)c3ccccc32)cc1	i	-3%	2.5%	i	1e-09
Cc1nc2c(c(=O)n1CC1CCCO1)c1nc3ccccc3nc1n2Cc1ccc2c(c1)OCO2 (stereo not drawn)	i	/	/	i	1e-09
CCCCCOC(=O)c1cc(=O)[nH]c2ccccc12	i	?	1.3%	i	3.2e-08

Further structures
SMILES	A488 fluor	TSHR ag	AID923	Resorufin autofl	A647 autofl
CCCCN(CCCC)c1nc2ccccc2nc1C(C#N)C(=O)NCCCOC (stereo not drawn)	?	/	/	i	1.6e-08
COCCCn1c(SCC(=O)NC(C)(C)C)nnc1-c1ccccc1	i	-1%	1.2%	i	1e-09
Nc1c(S(=O)(=O)c2cccs2)c2nc3ccccc3nc2n1/N=C/c1cccc(O)c1	i	-11%	6.2%	i	1e-09
CC(=O)c1cnc(N2CCCCC2)nc1C	i	4%	-1.2%	i	2.7e-08
Cc1ccnc(NC(=O)CCC(=O)N(CC(=O)NC2CCCCC2)c2cccc(C)c2C)c1	i	12%	0.4%	i	4.2e-08
COc1cccc(OCc2nc3ccccc3[nH]2)c1	/	3%	-0.4%	/	/
O=C(Nc1ccc(-c2cn3ccsc3n2)cc1)C1COc2ccccc2O1 (stereo not drawn)	i	5%	-0.2%	i	3.5e-08
CCOC(=O)C1CCN(CC(=O)Nc2c(C(=O)OC)n(C)c3cccc(C)c23)CC1	i	4%	-0.3%	i	4.1e-09
Cc1ccc(C(=O)N2CCCC2)cc1S(=O)(=O)Nc1ccccc1	i	13%	2.5%	i	1e-09
CCCc1cc(=O)[nH]c(SCC(=O)c2cc(C)n(C(C)COC)c2C)n1 (stereo not drawn)	i	4%[11.4 µM]	-1.0%	i	3.9e-08
Cc1nnc(SCC(=O)NCC2CCCO2)n1-c1ccccc1 (stereo not drawn)	i	9%	0.8%	i	1e-09
C=CCn1c(=O)[nH]c2cc(C(=O)N3CCN(c4cc(C)ccc4C)CC3)ccc2c1=O	i	3%	0.0%	i	3.9e-09
COc1ccc(-c2[nH]ncc2-c2cnn(-c3ccccc3)c2)c(O)c1	/	1%	-2.9%	/	/
CCOC(=O)N1CCC(c2[nH][nH]c(=O)c2C)CC1	i	5%	0.2%	i	1e-09
COc1ccccc1OCC(=O)N(Cc1nc(-c2ccccc2)no1)C1CCCCC1	i	?	-0.4%	i	1e-09

(more compounds)
SMILES	A488 fluor	TSHR ag	AID923	Resorufin autofl	A647 autofl
Cc1cc(C)n(C(=O)CNC(=O)c2ccc3c(c2)OCCO3)n1	i	/	/	i	8.2e-08
CC(C)N(C)C1CCN(C(=O)Nc2ccc(Cl)cc2)CC1	i	4%	-1.3%	i	1.9e-08
CC1=C(C(=O)Nc2ccccc2C)C2(CCCC2)C(C(N)=O)C(=O)N1 (stereo not drawn)	i	19%	0.1%	i	1e-09
CC(C)Cn1c(=O)c(C2=NS(=O)(=O)c3ccccc3N2)c(O)c2ccccc21	/	0%	-0.3%	/	/
COc1ccc(OCc2cccc(C(=O)O)c2)cc1	i	4%	0.9%	i	5.9e-09
O=C(Cn1c(=O)oc2ccccc21)Nc1ccc(S(=O)(=O)N2CCCCC2)cc1	i	-5%	-2.4%	i	2.6e-09
CC1CCN(Cc2nc3c(c(=O)n(C)c(=O)n3C)n2CCN2CCOCC2)CC1	i	?	-0.2%	i	4.2e-08
O=C(C(Cc1ccccc1)N1C(=O)C2C3C=CC(C3)C2C1=O)N1CCCCCC1 (stereo not drawn)	i	/	-0.8%	i	1e-09
Cc1occc1C(=O)N1CCN(c2ccc(Cl)c(Cl)c2)CC1	i	?	-0.7%	i	4.4e-09
O=C(CSc1nnc(-c2ccccc2Cl)n1Cc1ccco1)Nc1ccc2c(c1)OCCO2	i	?	-1.6%	i	1e-08
CC1(C)S[C@@H]2[C@H](NC(=O)COc3ccccc3)C(=O)N2[C@H]1C(=O)O (tested in a mixture with another compound)	i	-5%[25.6 µM]	0.6%[25.7 µM]	i	2.9e-08
O=C(Nc1cccc(F)c1)N1CC[C@@]2(CCCNC2)C1	i	17%	2.2%	i	3.1e-08
COC(=O)N1CCC2(CC1)CN(C(=O)Nc1ccc(OC)cc1)C2	i	3%	2.1%	i	1.5e-09
N#Cc1ccc(Oc2cccnc2)cc1C#N	/	-7%	6.8%	/	/
O=C(COc1ccc(-n2cnnn2)cc1)NC1CCCCC1	i	0%	-0.8%	i	2e-09

The list goes on.
SMILES	A488 fluor	TSHR ag	AID923	Resorufin autofl	A647 autofl
COc1ccc(C2CC(C(F)(F)F)n3nc(C(=O)Nc4ccc5c(c4)OCO5)cc3N2)cc1 (stereo not drawn)	/	-20%	-0.1%	/	/
COc1ccc(NC(=O)C2CCCN2C(=O)NC2CCCCC2)cc1OC (stereo not drawn)	i	3%	5.9%	i	1e-09
Cn1c(COc2ccc(Cl)cc2)nc2ccccc2c1=O	i	?	3.6%	i	9.9e-09
COC(=O)C1=C(C)OC(N)=C(C#N)C1C1CCCCC1 (stereo not drawn)	i	13µM*	-0.4%	i	4e-08
COc1ccc(N2CCN(C(=O)C(C)(C)Oc3ccc(Cl)cc3)CC2)cc1	/	-6%	1.1%	/	/
Nc1nc(N)nc(-c2ccccc2)n1	i	-1%	2.9%	i	3.7e-08
O=C(NNC(=O)c1ccncc1)c1ccncc1	i	18%[11.4 µM]	6.4%[11.5 µM]	i	3.1e-08
Cc1ccc(OCCNC(=O)c2ccco2)cc1C	/	-1%	-0.3%	/	/
CCCCNC(=O)c1ccc(CS(=O)(=O)c2cccc(C(F)(F)F)c2)o1	i	6%	-0.4%	i	1e-08
CCC(C)NC(=O)C1CC(c2cccc(OC)c2)=NO1 (stereo not drawn)	i	9%	-0.9%	i	1e-09
CCC(C)NC(=O)c1ccccc1C(=O)NC(C)CC (stereo not drawn)	i	3%	-0.3%	i	1e-09
COc1ccc(-c2cc(N)n(S(=O)(=O)Cc3ccccc3)n2)c(OC)c1	/	23%	-4.6%	/	/
CCCCc1ccc(CC(=O)O)cc1	i	1%	-1.3%	i	4.7e-09
Cc1onc(-c2ccccc2)c1C(=O)NC(C)C	/	-2%	-1.8%	/	/
CSC1=NCCN1C(=O)C(C)(C)Oc1ccc(Cl)cc1	/	28%	-0.9%	/	/

Remaining list, next part.
SMILES	A488 fluor	TSHR ag	AID923	Resorufin autofl	A647 autofl
COn1cnnc1-c1ccccc1	i	-5%	2.4%	i	7.3e-09
Cc1ccc(N(Cc2cc(=O)[nH]c3ccccc23)C(=O)c2ccco2)cc1	i	?	0.5%	i	4.6e-08
CC(C)c1nnc(NC(=O)CSc2nc3ccccc3s2)s1	i	?	0.8%	i	1.3e-08
O=C1C2C3C=CC(C3=C3CCCCC3)C2C(=O)N1c1ccccc1 (stereo not drawn)	i	24%	3.8%	i	2.3e-09
Nc1nc(CSc2nc3ccccc3[nH]2)cs1	/	3%[11.4 µM]	-2.1%	/	/
CCOC(=O)c1c(C)nc2ncccn12	i	1%	0.6%	i	2.5e-08
Cc1ccc(NC(=O)c2nnn(CC(=O)Nc3ccccc3)c2N)cc1C	i	-12%	0.7%	i	2.1e-08
C=CCOc1ccc(C2NC(=O)NC(C)=C2C(=O)OC)cc1 (stereo not drawn)	i	16%	-2.1%	i	7.9e-08
Cc1cccc(C(=O)O)c1[N+](=O)[O-]	/	-4%	-0.1%	/	/
Cc1cc(C)cc(-c2nnc(SCC(=O)N3CCN(C(=O)c4ccco4)CC3)o2)c1	i	1%	-0.8%	i	1e-09
CCCNC(=O)NCCc1c(C)[nH]c2ccccc12	/	-1%	0.2%	/	/
Cc1cc(C)n(C2CCCCC2OC(=O)c2ccccc2)n1 (stereo not drawn)	i	/	/	i	1.1e-09
COC(=O)c1[nH]c2ccc(F)cc2c1NC(=O)CCN1CCN(Cc2ccc3c(c2)OCO3)CC1	i	-7%	1.9%	i	2e-08
CCOc1ccc(CCNC(=O)C(C)n2nc(C)n3c(cc4occc43)c2=O)cc1OCC (stereo not drawn)	/	10%	0.9%	/	/
CC1(C)CCN(Cc2ccccc2)C1CC#N (stereo not drawn)	i	/	/	i	1e-09

Further results:
SMILES	A488 fluor	TSHR ag	AID923	Resorufin autofl	A647 autofl
CC(C)Nc1ccccc1	/	4%	-1.7%	/	/
COC(=O)c1sc(NC(=O)c2ccc(Cn3cc(Cl)cn3)o2)c(C#N)c1C	i	?	3.8%	i	7.1e-09
CN(C)S(=O)(=O)c1ccc(C(=O)Nc2ccc(CN3CCCC3)cc2)cc1	i	3%	-1.9%	i	3.9e-08
C[C@]12CC[C@H]3c4ccc(OC[C@H]5CO5)cc4CC[C@H]3[C@H]1CC[C@@H]2O	/	0%[11.4 µM]	-0.7%[11.5 µM]	/	/
Cc1c2c(nc3c(C(=O)NC4CCCC4)cnn13)CCCC2	i	?	-2.1%	i	2.2e-08
CC(=C1C(=O)c2ccccc2C1=O)N1CCC(C(N)=O)(N2CCCCC2)CC1	i	-5%	2.1%	i	1e-09
CC(=O)Nc1cc(C(=O)O)ccc1S(=O)(=O)c1ccc(C)cc1	i	-3%	-0.2%	i	4.4e-08

Part of the list above, reformatted:
CN(C)S(=O)(=O)c1ccc(C(=O)Nc2ccc(CN3CCCC3)cc2)cc1
  A488 fluor = i
  TSHR ag = 3%
  AID923 = -1.9%
  Resorufin autofl = i
  A647 autofl = 3.9e-08
C[C@]12CC[C@H]3c4ccc(OC[C@H]5CO5)cc4CC[C@H]3[C@H]1CC[C@@H]2O
  A488 fluor = /
  TSHR ag = 0%[11.4 µM]
  AID923 = -0.7%[11.5 µM]
  Resorufin autofl = /
  A647 autofl = /
Cc1c2c(nc3c(C(=O)NC4CCCC4)cnn13)CCCC2
  A488 fluor = i
  TSHR ag = ?
  AID923 = -2.1%
  Resorufin autofl = i
  A647 autofl = 2.2e-08
CC(=C1C(=O)c2ccccc2C1=O)N1CCC(C(N)=O)(N2CCCCC2)CC1
  A488 fluor = i
  TSHR ag = -5%
  AID923 = 2.1%
  Resorufin autofl = i
  A647 autofl = 1e-09
